Compound activity deposited in PubChem by several laboratories.
eIF4H inh: inhibitors of RNA binding by human eIF4H; Q15056; eIF4H fluorescence polarization binding assay; inhibition, % at 35 µM; hit rate 0.94% among 290,000; AID 2012;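 active means 50% or more with normal probe brightness, or confirmed in later tests; about a fifth of its hits are not listed in these tables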;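 further: calls also rest on retests at 20 µM and on dose response follow-up; 0% = protein and probe with vehicle and 100% = probe without protein; strong numbers were not always called active; many hits fall short of the cut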
MT1-MMP act inh: inhibitors of human MT1-MMP activation; hit rate 0.061% among 360,000; HT1080 RFP-PRO-GFP cells, GFP/RFP ratio fluorescence, overnight; percent of plate control window, DMSO zero; GFP/RFP ratio change, % at 20 µM; P50281;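 active means GFP/RFP ratio change of at least 30% with cell ATP level not reduced by more than half and red fluorescence within 50% of control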; further: strong numbers were not always called active
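Assay system: HT1080 cells carrying an RFP-PRO-GFP reporter | Dosing: Single dose of 20 µM compound, 1% DMSO final | Incubation: Cells overnight before dosing, compound overnight, 37 °C, 5% CO2 | Evaluation: GFP/RFP fluorescence ratio | Control set: DMSO and RFP-L50D-GFP cell wells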
UUG fidelity: yeast start codon fidelity modulation. S. cerevisiae UUG-firefly luciferase reporter, luminescence/redox ratio. activity score, % at 18.7 µM. hit rate 0.13% among 350,000. AID 602363;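 active means replicate mean at a twofold rise or more, about +100% in these data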;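 further: firefly luciferase made from a UUG start codon reports start codon fidelity; reporter light over untreated wells divided by growth signal over untreated wells; some hits fall short of that in this replicate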
HIV Env fusion: inhibitors of HIV Env-mediated cell fusion; HeLa-JRFL Env/CEM21 cell fusion, luciferase; inhibition, % at 12.3 µM; hit rate 1.1% among 360,000; AID 651610;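 active means mean replicate inhibition score of at least 50 and every replicate individually at or above 50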;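 further: 0% = plate neutral controls and 100% = maraviroc near 300 nM; one replicate is shown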
CSC inhib: cancer stem cell inhibition. cancer stem cell-like cells viability, luminescence. hit rate 1.1% among 300,000. AID 2717. inhibition, % at 7.5 µM;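 active means mean at 75% or more and at least half the replicates too; tested in HMLE shEcad cells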;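 further: 0% = median of negative and 100% = median of positive control wells; the first replicate is given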
Rce1 inhib: yeast Ras-converting enzyme inhibition; Q03530; yeast membranes, quenched prenylated peptide cleavage fluorescence; calls only; hit rate 0.27% among 290,000; AID 2563;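 active means fall in fluorescence gain of 50% or more versus controls, with final raw signal at or below 3038400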;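 further: plate controls were neutral control wells for no effect and wells lacking membranes for full effect; tested at 10 µM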
PABP FP inh: blocks human PABP binding to poly(A) RNA. P11940. fluorescence polarization. inhibition, % at 35 µM. hit rate 1% among 290,000. AID 2014;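 active means 50% or more with normal probe brightness, or confirmed in later tests; about a fifth of its hits are not listed in these tables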;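 further: calls also rest on retests at 20 µM and on dose response follow-up; controls were probe without protein and protein plus probe with vehicle; some compounds called inactive have numbers as strong as hits; many hits fall short of the cut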
Target sequence (P11940 whole entry, looked up): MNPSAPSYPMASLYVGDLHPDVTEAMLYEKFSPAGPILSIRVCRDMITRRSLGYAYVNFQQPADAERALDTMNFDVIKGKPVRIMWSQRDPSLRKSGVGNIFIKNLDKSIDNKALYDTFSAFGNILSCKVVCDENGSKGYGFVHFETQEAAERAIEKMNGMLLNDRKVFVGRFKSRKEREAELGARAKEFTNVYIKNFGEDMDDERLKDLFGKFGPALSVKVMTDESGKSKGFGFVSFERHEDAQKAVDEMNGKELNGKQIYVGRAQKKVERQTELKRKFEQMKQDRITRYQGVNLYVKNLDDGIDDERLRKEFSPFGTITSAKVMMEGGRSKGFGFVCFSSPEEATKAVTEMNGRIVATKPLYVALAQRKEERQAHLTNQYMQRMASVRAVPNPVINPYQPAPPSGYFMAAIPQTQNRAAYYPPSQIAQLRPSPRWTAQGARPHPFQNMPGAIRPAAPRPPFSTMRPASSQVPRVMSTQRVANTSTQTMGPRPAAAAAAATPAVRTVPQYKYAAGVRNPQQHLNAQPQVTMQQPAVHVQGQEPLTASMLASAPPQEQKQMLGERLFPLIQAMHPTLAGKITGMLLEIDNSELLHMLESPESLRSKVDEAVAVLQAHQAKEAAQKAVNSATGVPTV
eIF4H inh retest: recorded beside eIF4H inh, whose call it bears; inhibition, %; compound at 20 µM; confirmation average;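 mean of two retest wells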
PABP FP inh retest: also measured in PABP FP inh; calls as there; inhibition, %; compound at 20 µM; confirmation repeats;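 mean of two retest wells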
MT1-MMP act inh RFP: second read-out of MT1-MMP act inh, no call of its own (marks repeat the call); RFP signal change, %; measured here: RFP expression control read;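 0 = vehicle wells; hits needed this value within 50% of zero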
The depositor's hits bear a star; i = inactive; x = not tested or not shown.

SMILES | eIF4H inh | MT1-MMP act inh | MT1-MMP act inh RFP | UUG fidelity | HIV Env fusion | CSC inhib | Rce1 inhib | PABP FP inh | others
C#CCOCCOCCOCCNc1nc(N2CCN(C(=O)CCCCCCCCCCNC(=O)[C@H](CCCCN)n3cc(C[C@@H](C)CC)nn3)CC2)nc(N2CCN(C(=O)CCCCCCCCCCNC(=O)[C@@H]([C@H](C)O)n3cc(C)nn3)CC2)n1 | x | -34 | -27 | -9 | x | 19 | x | x
C#CCOCCOCCOCCNc1nc(N2CCN(C(=O)CCCCCCCCCCNC(=O)[C@@H](CCC(=O)O)n3cc(CCCCCN)nn3)CC2)nc(N2CCN(C(=O)CCCCCCCCCCNC(=O)[C@H]([C@@H](C)CC)n3cc(CCCCCN)nn3)CC2)n1 | x | 24 | 4 | -3 | x | 15 | x | x
O=[N+]([O-])c1cccc(S(=O)(=O)[N-]c2nc3ccccc3nc2-n2cc[n+](Cc3ccccc3)c2)c1 | 2 | 4 | 6 | -16 | 13 | -8 | i | -1
COc1ccc(-c2noc(CNS(=O)(=O)c3ccc(NC(C)=O)cc3)n2)cc1OC | -5 | 5 | 5 | -2 | 1 | 5 | i | -13
CCCn1nnnc1SCC(=O)Nc1nnc(CC)s1 | -3 | 4 | 7 | -20 | x | -10 | i | -11
CCOCCCNC(=O)CN1C(=O)CSc2cc(S(=O)(=O)N3CCCCCC3)ccc21 | -10 | 0 | 3 | -4 | x | -5 | i | 10
O=C(CN1CCc2ccccc21)NC(c1ccccc1)c1ccccc1 | 7 | -6 | 4 | -8 | x | -2 | i | 7
COc1ccc(-n2c(SCC(=O)NCC3CCCO3)nc3c(c2=O)SCC3)cc1OC (stereo unspecified) | 4 | -1 | 4 | -2 | -3 | -14 | i | 0
Clc1cccc(Cl)c1COc1ccccn1 | 1 | -2 | 3 | -12 | -38 | -16 | i | -9
O=C(OCc1cn(Cc2ccccc2)nn1)c1ccccc1 | -2 | 1 | 4 | -17 | 0 | x | i | 4
Cc1ccccc1NC(=S)NC(=O)c1cc(-c2ccccc2)nc2ccccc12 | -6 | -15 | -11 | -16 | x | 39 | i | 6
CCN(CC(=O)Nc1ccc2c(c1)OCCO2)C(=O)/C=C/c1cc(Br)ccc1OC | x | -3 | 3 | 1 | -57 | x | x | x
Cc1ccc(NC(=O)c2ccccc2)s1 | -5 | 3 | -3 | -34 | -308 | 8 | i | 33
COc1cc(C(=O)NCCCN2CCCC2=O)ccc1OCc1ccc(Cl)cc1Cl | x | 3 | -3 | -5 | -6 | x | x | x
Cc1ccc(NC(=S)NCC2CCCO2)cc1C (stereo unspecified) | -3 | 3 | 5 | -25 | -70 | 4 | i | 22
CC(=O)c1ccc(NS(=O)(=O)c2ccccc2)cc1 | 7 | 9 | 4 | -10 | -9 | 3 | i | 0
Cc1c(C)c2ccc(OCC(=O)NC(Cc3ccc(Cl)cc3)C(=O)O)cc2oc1=O (stereo unspecified) | -2 | 1 | 2 | -2 | x | -6 | i | 8
CC(=O)c1sc(NC(=O)CCCOc2ccccc2C)nc1C | -10 | 3 | 3 | x | 4 | 5 | i | -6
COc1cc2c(cc1NC(=O)CN1CCN(S(=O)(=O)c3ccc(F)cc3)CC1)oc1ccccc12 | 3 | -7 | -8 | 2 | x | -8 | i | -4
O=C(CCC(C(=O)c1ccccc1)c1ccccc1)c1ccccc1 (stereo unspecified) | x | 2 | -1 | -8 | -59 | x | x | x
CCn1ccnc1C(O)c1ccccc1OC (stereo unspecified) | 4 | 1 | 2 | -26 | x | -2 | i | 0
Cc1ccc(S(=O)(=O)Nc2nnc(CC(C)(C)C)s2)cc1 | -22 | 4 | 0 | -11 | 2 | 6 | i | -13
CC(=O)OC1OCCOC1NC(=S)NCc1ccco1 (stereo unspecified) | 61 | -3 | 1 | -20 | -7 | -12 | i | 32 | eIF4H inh retest=-4;PABP FP inh retest=-5
CCc1ccccc1NC(=O)NNC(=O)c1ccc2ccccc2c1O | 4 | 2 | 5 | -1 | -2 | 3 | i | 3
CCOC(=O)N1CCN(C(=O)C(=O)NNC(=O)COc2ccc(Cl)c(C)c2)CC1 | 7 | 1 | 0 | 10 | -15 | 10 | i | -3
O=C(CN1CCN(c2ccccn2)CC1)Nc1ccccc1C(=O)Nc1ccccc1 | x | 2 | 1 | -5 | 23 | 1 | i | x
CC(C)NS(=O)(=O)c1cc(C(=O)O)ccc1Cl | -10 | 1 | 2 | 5 | x | -9 | i | -9
Cn1c(=O)c2c(nc(SCC(=O)OCc3ccccc3)n2C)n(C)c1=O | 0 | -2 | 1 | -6 | -44 | x | i | 7
O=S(Cc1ccccc1)CC(O)(c1ccc(Cl)cc1)c1ccc(Cl)cc1 (stereo unspecified) | 4 | -8 | -9 | -3 | -76 | 18 | i | -3
O/N=C/c1cc(Br)ccc1OCc1ccc(F)cc1 | x | -5 | -11 | 5 | x | 14 | i | x
Cc1ccccc1NC(=O)c1nc(S(C)(=O)=O)ncc1Cl | -9 | 1 | 1 | -20 | 28 | 9 | x | -4
COc1ccc(/C=N/NC(=O)CCCOc2ccc(Cl)cc2Cl)cc1[N+](=O)[O-] | 0 | 1 | -5 | x | x | 8 | i | -2
CCCC(=O)Nc1sc2c(c1C(=O)Nc1ccccn1)CCCC2 | 7 | -3 | -2 | -3 | 4 | -19 | i | -3
CSc1ccc(S(=O)(=O)NCCOc2ccccc2C)cc1 | 1 | 3 | 3 | x | x | -13 | x | 0
Cc1ccccc1-n1nc(-c2cccnc2)cc1C(=O)NN | 6 | 1 | 5 | -7 | 22 | -8 | i | 3
CCOc1ccccc1C(=O)Nc1ccc2nc3n(c(=O)c2c1)CCCCC3 | -15 | 7 | -1 | -10 | -6 | 54 | i | 2
C/C(=C\C(=O)c1ccc(C)cc1)NCc1ccc(F)cc1 | x | -6 | -2 | -3 | -55 | -7 | i | x
Cc1cc(NC(=O)CC(C)C)c(=O)n(Cc2c(F)cccc2Cl)c1 | 0 | 3 | -6 | -19 | 9 | -3 | i | -3
CC(Sc1nnc(CC(=O)Nc2ccccc2F)n1C)C(=O)Nc1nccs1 (stereo unspecified) | -12 | -4 | -1 | -17 | 14 | -3 | i | -6
COc1ccc(NC(=O)c2cc(=O)[nH]c3ccccc23)cc1S(=O)(=O)N1CCOCC1 | x | 1 | 6 | -8 | 17 | x | x | x
CCN(CC)C(=S)SCc1csc(CC(=O)Nc2ccccc2C)n1 | -1 | 1 | -3 | -6 | 21 | -4 | i | -8
O=C(COc1ccc(Cl)cc1)OCc1csc(Nc2ccccc2)n1 | -6 | -9 | -3 | -15 | 11 | -13 | i | 11
O=C(CCn1c(=O)c2ccccc2n(Cc2ccccc2)c1=O)NCc1ccc2c(c1)OCO2 | 7 | -5 | -2 | -14 | 2 | 11 | x | 7
COc1ccc(C(=O)NN2CCOCC2)cc1[N+](=O)[O-] | -16 | -1 | -1 | -14 | 3 | -17 | i | -1
Cc1noc(C)c1COc1cccc(C(=O)NCc2cccc(Cl)c2)c1 | 3 | 4 | -1 | -4 | x | -26 | i | -13
CN(C)CCCNC(=O)c1ccc(-c2ccccc2)cc1 | -8 | -1 | -5 | -6 | x | -5 | i | -7
COc1ccc(-c2cc(C(F)F)n3ncc(C(=O)Nc4cnn(Cc5ccccc5)c4)c3n2)cc1 | -2 | x | x | x | 12 | 40 | i | -5
COc1ccc(Cl)cc1NC(=O)CN(C)C(=O)c1ccc(C)s1 | x | 4 | 3 | -6 | 6 | -11 | i | x
COc1ccc(CNC(=O)CSc2ccsc2[N+](=O)[O-])cc1 | 10 | -2 | -2 | -12 | -11 | 2 | i | 1
Cc1c(Cl)cccc1NC(=O)Cc1cccs1 | 2 | -2 | -3 | -1 | 3 | -9 | i | 0

(listing goes on)
SMILES | eIF4H inh | MT1-MMP act inh | MT1-MMP act inh RFP | UUG fidelity | HIV Env fusion | CSC inhib | Rce1 inhib | PABP FP inh | others
Cc1ccccc1NC(=O)/C=C/c1cccs1 | 8 | -1 | -3 | x | -28 | -11 | i | 3
COc1ccc(/C=C/C(=O)N(C)Cc2cccs2)cc1S(=O)(=O)N1CCOCC1 | 6 | 2 | -2 | 4 | 17 | -12 | i | -5
C=CCn1c(N2CCN(c3ccc(OC)cc3)CC2)nc2c1c(=O)[nH]c(=O)n2C | 1 | 2 | -2 | 1 | 15 | -10 | i | 0
COc1ccc(C2=NN(C(=O)CCC(=O)O)C(c3ccccc3OC)C2)cc1 (stereo unspecified) | -6 | -1 | 0 | 4 | -7 | -11 | i | -8
Cc1cc(C(=O)NCC(C)(C)N2CCOCC2)c(C)o1 | x | 1 | 1 | x | 3 | -3 | i | x
CCCCNC(=O)CSc1nc(Cc2ccccc2)nc2ccccc12 | -10 | -1 | -9 | -6 | 11 | 26 | i | -12
CC(=O)Nc1ccc(-c2nnc(SCC(=O)n3c4c(c5ccccc53)CCCC4)n2C)cc1 | -1 | 5 | 4 | -11 | x | x | i | 11
Cc1noc(C)c1NC(=O)Nc1cccc2c1O[C@H](CN(C)S(=O)(=O)c1c(C)noc1C)[C@@H](C)CN([C@H](C)CO)C2=O | x | 0 | 4 | 5 | -4 | -5 | x | x
CC(=O)N1CC(C)Oc2ccc(S(=O)(=O)NC(CC(=O)O)c3ccccc3)cc21 (stereo unspecified) | 2 | -1 | -1 | 1 | -8 | -2 | i | -9
O=C(NCC1CCCO1)c1ccc(Cl)c(S(=O)(=O)N2CCOCC2)c1 (stereo unspecified) | -14 | 2 | 0 | -18 | -7 | 13 | i | -11

Molecules from the list above containing a nitro group on carbon:
SMILES | eIF4H inh | MT1-MMP act inh | MT1-MMP act inh RFP | UUG fidelity | HIV Env fusion | CSC inhib | Rce1 inhib | PABP FP inh | others
O=[N+]([O-])c1cccc(S(=O)(=O)[N-]c2nc3ccccc3nc2-n2cc[n+](Cc3ccccc3)c2)c1 | 2 | 4 | 6 | -16 | 13 | -8 | i | -1
COc1ccc(/C=N/NC(=O)CCCOc2ccc(Cl)cc2Cl)cc1[N+](=O)[O-] | 0 | 1 | -5 | x | x | 8 | i | -2
COc1ccc(C(=O)NN2CCOCC2)cc1[N+](=O)[O-] | -16 | -1 | -1 | -14 | 3 | -17 | i | -1
COc1ccc(CNC(=O)CSc2ccsc2[N+](=O)[O-])cc1 | 10 | -2 | -2 | -12 | -11 | 2 | i | 1

Remaining list, next part
SMILES | eIF4H inh | MT1-MMP act inh | MT1-MMP act inh RFP | UUG fidelity | HIV Env fusion | CSC inhib | Rce1 inhib | PABP FP inh | others
CC(C)c1nnc(NC(=O)CCC(=O)N2CCN(c3ccccn3)CC2)s1 | -6 | 7 | 4 | -12 | -46 | -1 | i | -1
CCc1ccc(C(=O)Nc2cccnc2Oc2ccc(Cl)cc2)cc1 | 45 | -7 | -2 | x | 1 | 40 | i | 15
CC(=O)c1c(C)nn(CCC(=O)O)c1C | 61 | 0 | 7 | -7 | -58 | -3 | i | 11 | eIF4H inh retest=33;PABP FP inh retest=8
Cc1cc(F)ccc1S(=O)(=O)Nc1ccc(C(=O)N2CCCCCC2)cc1 | x | 1 | -6 | 4 | x | 21 | x | x
c1csc(-c2nnc(COc3ccc4c(c3)OCO4)o2)c1 | 8 | 3 | 2 | x | -4 | -19 | i | 4
O=S(=O)(NCc1ccc(Cl)cc1)NCc1ccccc1F | 17 | 0 | 1 | -12 | 9 | 26 | i | 45
Cc1cc(-c2nnc(CCC(=O)NC(Cc3ccccc3)c3ccccc3)o2)no1 (stereo unspecified) | -9 | -2 | 2 | -18 | 11 | 1 | x | -2
CCc1ccccc1-n1c(SCC(=O)NC)nnc1-c1cccnc1 | -6 | -1 | 1 | -13 | -14 | x | i | -3
Cc1sc2nc(COC(=O)c3ccc(N4CCCC(C)C4)c([N+](=O)[O-])c3)[nH]c(=O)c2c1C (stereo unspecified) | -1 | 2 | 1 | x | 0 | 57 | i | 12
Cc1ccc2c(c1)N(CC(=O)N1CCCC1)C(=O)CO2 | 10 | -2 | -2 | -10 | 17 | 0 | i | 1
